Screens deposited in PubChem by National Center for Advancing Translational Sciences (NCATS).
GLA inh pH 4.5: alpha-galactosidase A (human) inhibition, pH 4.5; P06280; purified enzyme, 4-MU-alpha-Gal fluorescence, pH 4.5; activity change, negative = inhibition, % at 105 µM; 230,000 tested, under 10 active; AID 1467; inconclusive = small, poorly fitted or top-dose-only inhibition, or a rising curve; inactive = flat fitted curve, though single readings scatter; no compound was filed as active;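 also: 0% = full activity with enzyme and -100% = basal without enzyme; dose as in the result columns while the protocol names 77 µM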
Target sequence (P06280 whole entry, looked up): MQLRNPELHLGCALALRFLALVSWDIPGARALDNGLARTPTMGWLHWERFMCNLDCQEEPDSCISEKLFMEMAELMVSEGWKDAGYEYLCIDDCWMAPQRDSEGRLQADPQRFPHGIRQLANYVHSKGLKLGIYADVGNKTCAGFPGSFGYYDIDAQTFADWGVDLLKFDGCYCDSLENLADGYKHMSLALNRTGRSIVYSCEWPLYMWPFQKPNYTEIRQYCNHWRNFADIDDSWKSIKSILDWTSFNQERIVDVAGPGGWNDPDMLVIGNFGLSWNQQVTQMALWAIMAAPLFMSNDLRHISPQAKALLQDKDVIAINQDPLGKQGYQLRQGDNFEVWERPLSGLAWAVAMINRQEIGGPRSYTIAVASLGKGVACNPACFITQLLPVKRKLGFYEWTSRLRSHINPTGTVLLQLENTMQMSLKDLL
Rango release inh: prevents RanGTP from dissociating the Rango-importin beta complex; actives 0.071% (n = 340,000); Biochemical FRET Rango-importin beta, RanGTP-induced dissociation; Potency, µM (series often up to 46.1 µM), for inactives: at the top dose activity change, negative = inhibition; O95149+P62826; active means falling FRET ratio curve, often poorly fitted, with flat reads before Ran was added; inconclusive means other falling curves, or compound fluorescence or quenching; inactive means flat or rising ratio curve;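 also: potency is read from the fitted curve at half-maximal effect; % of control where 0% means no effect; nearly all actives have a fitted effect of over 45% in size; -100% = wells without RanGTP and RCC1; the record marks most hits as doubtful in a second field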
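Recombinant Rango FRET biosensor (EYFP–snurportin 1 IBB–cerulean CFP10) at 0.1 uM premixed with 0.25 uM importin beta in PBS, 1 mM DTT, 0.02% Tween-20, 0.1% BSA. Compound added 5 min; RanGTP-RCC1 (0.6 uM Ran, 2 mM GTP, 0.2 uM RCC1) then triggers release, read at 45 min.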
Rango-impB inh: Rango-importin beta binding inhibition | actives 0.031% (n = 340,000) | Potency, µM (series often up to 92.2 µM), for the others: top-dose inhibition of complex formation | Rango CFP/YFP FRET sensor + importin beta, 45 min | AID 540263 | Q14974; active = rising FRET ratio curve, often small or poorly fitted; inconclusive = mostly compound fluorescence or quenching in the first reads; inactive = flat curves in all reads;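 also: potency is read from the fitted curve at half-maximal effect; 0% = DMSO wells and 100% = buffer wells lacking importin beta; nearly all actives have a fitted effect of over 15% in size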
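FRET biosensor Rango (snurportin 1 IBB between N-terminal EYFP and C-terminal Cerulean), 50 nM in PBS/1 mM DTT/0.02% Tween-20/0.1% BSA, preincubated 5 min RT with compound; 0.125 microM importin beta added, 45 min RT, CFP/YFP FRET ratio read.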
miR-21 FLuc: miR-21 reporter, rising signal; HeLa miR-21 FLuc reporter, luciferase, 48 h; Potency, µM (highest dose often 38.3 µM), for inactives: top-dose reporter change, positive = more light; 340,000 tested, under 10 active; active = well fitted rising curve with a large enough effect; inconclusive = small, poorly fitted or top-dose-only effect; inactive = no such curve, though single readings can be large or run the other way;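 also: % of control where 0% means no effect; miR-21 action dims this reporter so a rising signal means less miR-21 action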
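HeLa cells stably expressing CMV-driven firefly luciferase with a downstream miR-21 binding sequence, endogenously expressing miR-21, were treated with titrations (up to about 40uM final) for 48 hours at 37 degree Celsius. Luciferase luminescence was read after lysis.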
Numbers without * were called inactive; ? = inconclusive; nt = not tested or not shown; & = joins results of further samples. An excerpt (hit frequency here may not be typical).

The line under a structure holds: GLA inh pH 4.5, Rango release inh, Rango-impB inh, miR-21 FLuc
CCCC(=O)N(c1ccc2oc(C)c(C(C)=O)c2c1)S(=O)(=O)c1ccc(C)c([N+](=O)[O-])c1
 : -2, 11%, 0.5%, -2%
O=C(CSc1ccccc1)Nc1ccc2c(c1)C(=O)NC2=O
 : nt, -13%, -3.0%, 0%
Oc1cccc(-c2nnc(-c3cccc(O)c3)nn2)c1
 : nt, 2%, 1.1%, nt
CCCC(=O)Nc1ccc2nn(-c3ccc(OC)cc3)nc2c1
 : nt, 27%, -3.5%, -27%
Cc1ccc(S(=O)(=O)N2CCOCC2)cc1NC(=O)CN1CCN(C)CC1
 : nt, -8%, 3.6%, nt
Cn1ccnc1SCC(=O)c1ccc(O)cc1
 : -8, -2%, -2.1%, -25%
COc1ccc(-c2nc(-c3ccc(Br)cc3)no2)c(OC)c1
 : 5, -12%, 1.2%, -60%
CC(Sc1nc(NCc2ccccc2)nc(N(C)C)n1)C(=O)Nc1ccccc1 (stereo unspecified)
 : -5, 4%, -2.5%, 15%
Clc1ccccc1N=C1NN=C(c2cccs2)CS1
 : 2, -6%, -2.8%, -22%
COc1ccc(CN2CCC(CO)(CCOc3ccccc3)CC2)cc1C
 : -9, 17%, 0.4%, ?
CCN1CCN(CC(O)COc2ccc3c(c2)CCC3)CC1 (stereo unspecified)
 : -5, -12%, 0.1%, -5%
CCC(CC)c1nnc(NC(=O)CCNC(=O)c2ccccc2Cl)s1
 : 9, 4%, 2.8%, -2%
CCCC(=O)N1CCN(c2ccc(C(=O)c3ccc(OC)c(Br)c3)cc2F)CC1
 : -2, nt, nt, 0%
O=c1ccn(CCOc2ccc(Cl)cc2)c(=O)[nH]1
 : -8, 17%, -0.1%, -5%
CC(C)(C)C1CCC(=NNC(=O)C(=O)NCc2ccco2)CC1 (stereo unspecified)
 : 1, 9%, -0.6%, -1%
CC1(c2nnc(-c3ccncc3)o2)CC(c2ccccc2)=NO1 (stereo unspecified)
 : nt, -13%, -0.4%, nt
COc1ccccc1CNC(=O)c1oc2ccc(S(=O)(=O)N3CCCC3)cc2c1C
 : 5, 1%, -0.6%, 3%
CC(OC(=O)Nc1cccc(Cl)c1)C(=O)O (stereo unspecified)
 : 10, 2%, 1.6%, -3%
COC(=O)[C@H](Cc1ccccc1)NCCCn1cnc(C(=O)Nc2ccc(C)c(C)c2)n1
 : nt, 13%, -4.6%, nt
Cn1cccc1C(C#N)c1ccccc1C#N (stereo unspecified)
 : 3, 0%, -0.3%, -2%
O=C(Nc1cccc(Oc2ccc3c(c2)C(=O)NC3=O)c1)c1cccs1
 : 3, -8%, -1.3%, -5%
O=C(NC1=NCCS1)C1CC(=O)N(c2ccc(F)cc2)C1 (stereo unspecified)
 : -21, 9%, -0.4%, -3%
CCNC(=O)C1CCCN1C(=O)C(CCCN=C(N)N)NC(=O)C(CC(C)C)NC(=O)C(Cc1cn(Cc2ccccc2)cn1)NC(=O)C(Cc1ccc(O)cc1)NC(=O)C(CO)NC(=O)C(Cc1c[nH]c2ccccc12)NC(=O)C(Cc1cnc[nH]1)NC(=O)C1CCC(=O)N1 (stereo unspecified)
 : nt, -4%, -3.3%, 3%
CN(C)CCCN1C(=O)C(=O)/C(=C(/O)c2ccc(OCc3ccccc3)cc2)C1c1cccnc1 (stereo unspecified)
 : 2, nt, nt, -8%
CCOC(=O)C1=C(C)N(C[C@@H]2CC[C@@H](Cc3ccc(-c4ccccc4)cc3)O2)C(=O)NC1c1ccc(C(F)(F)F)cc1 (stereo partly specified)
 : nt, 12%, -0.6%, nt
CCC(OC(=O)c1nsc(Cl)c1Cl)C(=O)NCC1CCCO1 (stereo unspecified)
 : nt, -9%, -3.2%, -1%
O=C(N/N=C/c1ccccc1OCc1ccccc1)c1cccs1
 : -7, 0%, 1.6%, -20%
Cc1nc(NC(=O)CSc2ccccc2N)sc1C
 : -3, -4%, 0.3%, -2%
COc1cccc(N2CCN(C(=O)c3ccc4ccccc4c3)CC2)c1
 : nt, -8%, ?, nt
CCOc1ccc(Nc2cc(C)nc(-n3nc(C)cc3C)n2)cc1
 : 5, 0%, -0.1%, 26%

Ordered by length of the SMILES (lowest first): some entries from above.
The line under a structure holds: GLA inh pH 4.5, Rango release inh, Rango-impB inh, miR-21 FLuc
Clc1ccccc1N=C1NN=C(c2cccs2)CS1
 : 2, -6%, -2.8%, -22%
O=c1ccn(CCOc2ccc(Cl)cc2)c(=O)[nH]1
 : -8, 17%, -0.1%, -5%
CC(C)(C)C1CCC(=NNC(=O)C(=O)NCc2ccco2)CC1 (stereo unspecified)
 : 1, 9%, -0.6%, -1%

Given in markdown: part of the list above
| Structure | GLA inh pH 4.5 | Rango release inh | Rango-impB inh | miR-21 FLuc |
| --- | --- | --- | --- | --- |
| CC1(c2nnc(-c3ccncc3)o2)CC(c2ccccc2)=NO1 (stereo unspecified) | nt | -13% | -0.4% | nt |
| COc1ccccc1CNC(=O)c1oc2ccc(S(=O)(=O)N3CCCC3)cc2c1C | 5 | 1% | -0.6% | 3% |
| CC(OC(=O)Nc1cccc(Cl)c1)C(=O)O (stereo unspecified) | 10 | 2% | 1.6% | -3% |
| COC(=O)[C@H](Cc1ccccc1)NCCCn1cnc(C(=O)Nc2ccc(C)c(C)c2)n1 | nt | 13% | -4.6% | nt |
| Cn1cccc1C(C#N)c1ccccc1C#N (stereo unspecified) | 3 | 0% | -0.3% | -2% |

The list continues.
The line under a structure holds: GLA inh pH 4.5, Rango release inh, Rango-impB inh, miR-21 FLuc
COc1cccc(OCc2ccc(C(=O)NCC3CCCO3)cc2)c1 (stereo unspecified)
 : -8, -6%, 0.9%, -28%
O=C(c1ccsc1)N1CCCC(N2CCN(c3cccc(C(F)(F)F)c3)CC2)C1 (stereo unspecified)
 : nt, -17%, 1.0%, 18%
CC(=O)c1sc(NC(=O)CS(=O)(=O)c2ccccc2)nc1-c1ccccc1
 : nt, -14%, -2.7%, nt
CC(C)c1cccc(-c2ccc3c(c2)S(=O)(=O)c2cccc(C(=O)O)c2C3=O)c1
 : nt, 15%, 2.4%, nt
O=C(Nc1ccccc1)c1nc[nH]c1C(=O)NCCN(CCNC(=O)c1[nH]cnc1C(=O)Nc1ccccc1)CCNC(=O)c1[nH]cnc1C(=O)Nc1ccccc1
 : nt, 1%, 2.5%, nt
Cn1c(SCC(=O)N2CCc3ccccc32)nnc1-c1ccc(S(=O)(=O)N2CCCC2)cc1
 : 4, ?, 6.0%, -6%
O=C(NCc1ccc2c(c1)OCO2)c1ccc(COc2cccc(Cl)c2)o1
 : -10, -1%, -2.5%, -7%
O=C(c1ccc2nc3ccc(Cl)cc3c(=O)n2c1)N1CCOCC1
 : -5, -4%, 0.5%, -3%
COc1ccc(NC(=O)c2cc3c([nH]c4ccccc43)c(C)n2)cc1
 : 1, 0%, -0.3%, -8%
COc1ccc(/C=N/Nc2nc(Nc3ccccc3)nc(N3CCCC3)n2)cc1[N+](=O)[O-]
 : 3, 9%, -0.2%, 1%
COc1ccc(N2CCN(C(=O)CN3C(=O)COc4ccccc43)CC2)cc1
 : nt, 1%, 4.5%, -3%
CCCC(=O)Nc1ccc(Br)c(Cl)c1
 : -10, 1%, -0.5%, -7%
CCc1c(C)nc2ncnn2c1N1CCC(C(=O)Nc2ccccc2)CC1
 : -1, -3%, -3.1%, 12%
CC(=O)N1CCN(C(=O)c2ccc(OC3CCN(Cc4ccccn4)CC3)cc2)CC1
 : nt, -5%, 2.0%, -1%
COc1cccc(NC(=O)Nc2cc(C(=O)O)ccc2N2CC3CC(C2)c2cccc(=O)n2C3)c1 (stereo unspecified)
 : nt, 14%, -0.3%, -2%
COc1ccc(C(=O)NNC2CC(=O)N(Cc3ccc(Cl)cc3)C2=O)cc1OC (stereo unspecified)
 : 3, 0%, -3.9%, -6%
Cc1nc2ccc(Cl)cc2c(-c2ccccc2F)c1CC(=O)O
 : 6, ?, 0.8%, -2%
O=S(=O)(c1ccccc1F)N1CCN(CCOc2ccccc2)CC1
 : nt, -1%, 0.7%, nt
O=C(Cc1cccc2ccccc12)Nc1ccc2c(c1)C(=O)NC2=O
 : -6, -7%, 2.8%, -1%
C=CCN(c1ccc(C(N)=O)cc1)S(C)(=O)=O
 : -7, 0%, 2.6%, 0%
COc1nnc(-c2ccc(C)c(S(=O)(=O)NC(C)C)c2)c2ccccc12
 : nt, -7%, 2.4%, -12%
O=C(c1ccccc1)c1ccc[nH]1
 : nt, 9%, 0.1%, nt
C=CCN=C(NC#N)SCc1ccccc1Cl
 : -4, 9%, -0.1%, -4%
CCCCCCC(NC(=O)c1ccc(C)cc1)C(=O)O (stereo unspecified)
 : nt, -3%, -3.1%, nt
Cn1c(Cn2c(=O)sc3ccccc32)nnc1SCC(N)=O
 : -6, ?, 0.0%, -3%
Cc1ccc2nc(-c3ccncc3)cc(C(=O)NCc3ccccc3F)c2c1
 : nt, 0%, -2.0%, 1%
CC(=O)c1ccc2c(c1)c1ccccc1n2CC(C)C
 : -13, 19%, 0.8%, -1%
C1=C(c2ccccc2)Nc2nnnn2C1
 : -1, ?, ?, -4%
N/C(=N\OC(=O)c1ccccc1[N+](=O)[O-])c1ccccn1
 : 2, -6%, -3.2%, -38%
Fc1ccc(CNn2cnnc2SCc2ccc(F)cc2)cc1
 : -4, 11%, -0.1%, 4%
O=C(CN1CCOCC1)Nc1nc(-c2ccc(Cl)cc2)cs1
 : nt, 8%, 8.7%, 20%
Clc1cccc(Cl)c1CSc1nnc([C@@H]2CCCN2)o1
 : 2, -7%, -1.5%, -13%
COc1cc(C(=O)NC2CC3CCCC(C2)N3Cc2ccccc2)cc(OC)c1OC (stereo unspecified)
 : nt, 27%, -1.0%, -3%
CCOC(=O)/C(C(C)=O)=C1/OC(=O)c2ccccc21
 : 3, 2%, 2.6%, 3%
COc1ccc(NC(=O)c2ccco2)cc1NC(=O)c1ccccc1[N+](=O)[O-]
 : nt, 13%, -2.2%, -9%&-12%
COc1ccc(/C=N/NC(=O)c2ccn[nH]2)cc1COc1ccc([N+](=O)[O-])c(C)c1
 : -7, 1%, 0.6%, -4%
COC(=O)[C@@]1(Cc2ccc(F)cc2)[C@H]2c3cc(C(=O)N4CCCC4)n(CCc4ccccn4)c3C[C@H]2CN1C(=O)c1ccccc1
 : -18&-19, -11%, -4.0%, -2%
COc1ccc(-n2nnnc2/C=C/Nc2cc(C(F)(F)F)ccc2OC)cc1
 : -5, ?, 1.0%, -2%
CCC(CO)Oc1cc(NC(=O)c2ccc(OC)cc2)c2ncn(C(C)C)c2c1 (stereo unspecified)
 : nt, -10%, -2.4%, nt
CCCCCn1c(N2CCC(C(N)=O)CC2)nc2c1c(=O)[nH]c(=O)n2C
 : 9, 4%, 0.1%, -25%
Cc1ccc(C)c(-c2nnc(NC(=O)C3=COCCO3)o2)c1
 : nt, 29%, -1.6%, nt
COc1ccc(CC(=O)NCC2(c3ccc(OC)c(OC)c3)CCCC2)cc1
 : 3, 21%, 0.0%, 2%
COc1cccc(NC(=O)C2CCCN(S(=O)(=O)c3cccc4nsnc34)C2)c1 (stereo unspecified)
 : -14, 36%, ?, 14%
COc1ccccc1NS(=O)(=O)c1cc(C)ccc1C
 : 4, -15%, 2.7%, -1%
CCOC(=O)C1=CN(Cc2cccc(F)c2)S(=O)(=O)N(C)C1c1cccc(OC)c1 (stereo unspecified)
 : nt, 23%, -0.2%, nt
O=C(O)c1nn(Cc2nc3ccccc3o2)c(=O)c2ccccc12
 : nt, -23%, -1.9%, 0%
COc1cc(C2C(C(=O)c3cccs3)=C(O)C(=O)N2Cc2ccco2)cc(OC)c1OC (stereo unspecified)
 : -7, 21%, 2.2%, -7%
CCOc1ccccc1NC(=O)CCN1CCN(S(=O)(=O)c2ccc(Br)cc2)CC1
 : -13, 6%, 0.0%, -4%
COc1cc(OC)c(OC)cc1/C=N/n1c(COc2ccccc2)n[nH]c1=S
 : nt, -9%, 2.7%, -2%
CSc1nc(-c2ccccc2)nc(NC(C)=O)c1C(C)=O
 : -28, -10%, -2.9%, 1%
Cc1cc(C)c(N)c(C(=O)O)c1
 : 6, 3%, 3.9%, -1%
